Screening data deposited in PubChem BioAssay by National Center for Advancing Translational Sciences (NCATS).
miR-21 reporter: qHTS Assay for Modulators of miRNAs and/orActivators of miR-21. 340,000 tested, under 10 active. HeLa miR-21 FLuc reporter, luciferase, 48 h. Potency, µM (series often up to 38.3 µM), for the others: at the top dose reporter change, positive = more light; active = well fitted rising curve with a large enough effect; inconclusive = small, poorly fitted or top-dose-only effect; inactive = no such curve, though single readings can be large or run the other way;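 also: % of control where 0% means no effect; miR-21 action dims this reporter so a rising signal means less miR-21 action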
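Luminescence from a firefly luciferase reporter carrying a miR-21 binding site downstream, stably expressed under a CMV promoter in HeLa cells that make miR-21 endogenously, reports miRNA modulation after 48 h compound exposure up to approximately 40uM final.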
Rango complex inh: qHTS Assay for Inhibitors of Rango (Ran-regulated importin-beta cargo) - Importin beta complex formation; Rango CFP/YFP FRET sensor + importin beta, 45 min; Potency, µM (titrated, usually from 92.2 µM), without a hit: at the highest dose inhibition of complex formation; actives 0.031% (n = 340,000); AID 540263, 2011; active = rising FRET ratio curve, often small or poorly fitted; inconclusive = mostly compound fluorescence or quenching in the first reads; inactive = flat curves in all reads;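 also: potency is read from the fitted curve at half-maximal effect; 0% = DMSO wells and 100% = buffer wells lacking importin beta; nearly all actives have a fitted effect of over 15% in size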
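FRET biosensor Rango (snurportin 1 IBB between N-terminal EYFP and C-terminal Cerulean), 50 nM in PBS/1 mM DTT/0.02% Tween-20/0.1% BSA, preincubated 5 min RT with compound; 0.125 microM importin beta added, 45 min RT, CFP/YFP FRET ratio read.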
Rango dissoc inh: qHTS Assay for Inhibitors of RanGTP induced Rango (Ran-regulated importin-beta cargo) - Importin beta complex dissociation | Potency, µM (top dose mostly 46.1 µM), for inactives: at the highest dose activity change, negative = inhibition | Snurportin-1 (Homo sapiens) + GTP-binding nuclear protein Ran (Homo sapiens) + Importin … | actives 0.071% (n = 340,000) | Biochemical FRET Rango-importin beta, RanGTP-induced dissociation | AID 540253, 2011; active means falling FRET ratio curve, often poorly fitted, with flat reads before Ran was added; inconclusive means other falling curves, or compound fluorescence or quenching; inactive means flat or rising ratio curve;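 also: potency is read from the fitted curve at half-maximal effect; % of control where 0% means no effect; nearly all actives have a fitted effect of over 45% in size; -100% = wells without RanGTP and RCC1; the record marks most hits as doubtful in a second field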
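Quantitative HTS using a FRET biosensor: 0.1 uM Rango, 0.25 uM importin beta, 0.6 uM Ran, 2 mM GTP, 0.2 uM RCC1 final, PBS with DTT, Tween-20 and BSA. Post-read taken 45 min after Ran addition.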
GLA inh pH 4.5: qHTS Assay for Inhibitors of Human alpha-Galactosidase at pH 4.5. purified enzyme, 4-MU-alpha-Gal fluorescence, pH 4.5. Alpha-galactosidase A (Homo sapiens), P06280. 230,000 tested, under 10 active. activity change, negative = inhibition, % at 105 µM; inconclusive = small, poorly fitted or top-dose-only inhibition, or a rising curve; inactive = flat fitted curve, though single readings scatter; no compound was filed as active;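 also: 0% = full activity with enzyme and -100% = basal without enzyme; dose as in the result columns while the protocol names 77 µM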
Target sequence (P06280 whole entry, looked up): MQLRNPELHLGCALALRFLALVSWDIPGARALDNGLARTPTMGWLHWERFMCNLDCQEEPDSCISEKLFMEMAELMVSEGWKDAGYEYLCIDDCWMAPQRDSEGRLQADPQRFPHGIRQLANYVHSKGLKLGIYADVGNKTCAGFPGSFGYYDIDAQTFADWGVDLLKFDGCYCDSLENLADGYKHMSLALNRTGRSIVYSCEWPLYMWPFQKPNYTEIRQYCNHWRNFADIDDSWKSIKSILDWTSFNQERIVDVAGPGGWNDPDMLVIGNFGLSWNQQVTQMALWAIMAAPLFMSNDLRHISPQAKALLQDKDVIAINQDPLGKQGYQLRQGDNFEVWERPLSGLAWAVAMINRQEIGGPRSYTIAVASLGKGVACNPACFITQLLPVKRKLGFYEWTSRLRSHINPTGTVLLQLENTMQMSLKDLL
Numbers without * were called inactive; ? = inconclusive; nt = not tested or not shown; & = joins results of further samples. Only part of the results is shown (hit frequency here may not be typical).

Sample of the layout, 7 compounds:
Fields – miR-21 reporter	Rango complex inh	Rango dissoc inh	GLA inh pH 4.5
1	Cc1ccc2cc(/C=C3\N=C(c4ccccc4)OC3=O)c(N3CCOCC3)nc2c1
 : -4%	-2.1%	12%	-1
2	COC(=O)c1cc(C(=O)OC)[nH]n1
 : 1%	2.5%	0%	3
3	COc1ccc(/C=C(/NC(=O)c2ccccc2)c2nc3ccccc3[nH]2)cc1OC
 : -13%	?	11%	-3
4	O=C(Nc1ccc(N2CCOCC2)cc1N1CCOCC1)c1ccccc1
 : nt	-2.6%	-1%	nt
5	CCC1CCCCN1C(=O)CSc1nc(N)c(NC(=O)c2ccco2)c(=O)[nH]1 (centres undefined)
 : 1%	0.5%	-5%	10
6	Cc1c(C)c(C)c2[nH]c(-c3ccc4c(c3)OCO4)nc2c1C
 : -4%	0.5%	14%	nt
7	O=C(NCc1ccc(F)cc1)C1CCN(C(=O)NCc2ccccc2)CC1
 : 3%	-2.1%	4%	0

This part in full, repeating the preview:
Fields – miR-21 reporter	Rango complex inh	Rango dissoc inh	GLA inh pH 4.5
1	Cc1ccc2cc(/C=C3\N=C(c4ccccc4)OC3=O)c(N3CCOCC3)nc2c1
 : -4%	-2.1%	12%	-1
2	COC(=O)c1cc(C(=O)OC)[nH]n1
 : 1%	2.5%	0%	3
3	COc1ccc(/C=C(/NC(=O)c2ccccc2)c2nc3ccccc3[nH]2)cc1OC
 : -13%	?	11%	-3
4	O=C(Nc1ccc(N2CCOCC2)cc1N1CCOCC1)c1ccccc1
 : nt	-2.6%	-1%	nt
5	CCC1CCCCN1C(=O)CSc1nc(N)c(NC(=O)c2ccco2)c(=O)[nH]1 (centres undefined)
 : 1%	0.5%	-5%	10
6	Cc1c(C)c(C)c2[nH]c(-c3ccc4c(c3)OCO4)nc2c1C
 : -4%	0.5%	14%	nt
7	O=C(NCc1ccc(F)cc1)C1CCN(C(=O)NCc2ccccc2)CC1
 : 3%	-2.1%	4%	0
8	Cc1cc(C)n(-c2ccc(C(=O)NC3CCCCC3)cc2)n1
 : -31%	1.3%	-4%	3
9	CC(O)CNCCOc1ccccc1OCc1ccccc1 (centres undefined)
 : -1%	3.6%	-1%	-8
10	O=C1CSC(c2ccccc2)N1Cc1ccccn1 (centres undefined)
 : 1%	1.0%	5%	nt
11	CCOc1ccccc1C(=O)OCC(=O)Nc1ccc(N2CCCCC2)cc1
 : -16%	0.5%	2%	-9
12	COc1ccccc1NC(=O)CN(Cc1ccco1)C(=O)c1ccc(-n2nc(C)cc2C)cc1
 : 4%	1.0%	16%	-3
13	CCCCCC(=O)Nc1ccc(-c2cn3cccnc3n2)cc1
 : -21%	-1.8%	-25%	?
14	CC/C(=N\NC(=O)c1cc(C)nc2ccccc12)c1ccc(C)s1
 : 18%	0.5%	-6%	4
15	Fc1ccc(C2c3cccn3CCN2C(=S)Nc2cccc(Br)c2)cc1 (centres undefined)
 : 16%	-0.9%	-3%	-5
16	CN(C)C(=O)CCc1ccc2c3c([nH]c2c1)[C@]1(CCc2ccccc2)[C@@H](C(=O)N2CCCCC2)C[C@H](CC(=O)NCc2ccco2)C(=O)N1CC3
 : nt	1.7%	11%	nt
17	Cc1ccc(CS(=O)(=O)c2nsc(C)c2C#N)cc1
 : 0%	5.9%	-4%	5
18	COc1ccc(Oc2c(C)nc(SCC(=O)c3ccc(Cl)cc3)[nH]c2=O)cc1
 : -1%	-0.9%	16%	-1
19	Cc1oc2cc3oc(=O)c(CC(=O)O)c(C)c3cc2c1-c1ccccc1
 : -5%	3.3%	0%	nt
20	CCc1ccc(NC(=O)COC(=O)Cn2cnc3ccccc32)cc1
 : nt	-4.9%	4%	nt
21	CN(CC(=O)Nc1ccccc1Cl)C(=O)Cn1cnc2ccc(Cl)cc2c1=O
 : nt	-5.2%	-4%	nt
22	Cc1ccc(C(=O)N/C(=C/c2ccco2)C(=O)N2CCCCC2)cc1
 : -10%	2.9%	6%	nt
23	C=CCNC(=O)c1ccc(CSc2nc3ccccc3s2)cc1
 : 0%	-0.5%	-3%	nt
24	COc1ccc(C2=NN(C(=O)c3ccccc3)C(c3cccc([N+](=O)[O-])c3)C2)cc1 (centres undefined)
 : -1%	5.8%	-2%	-7
25	O=C(CN1C(=O)NC2(CCCCCC2)C1=O)NCc1ccccc1Cl
 : nt	-1.8%	14%	nt
26	CC(C)(C)c1nc(CN2CCOCC2)cc(CN2CCOCC2)c1O
 : -6%	0.9%	-13%	5
27	COC(=O)c1c(C)[nH]c(C(=O)C(C)OC(=O)c2ccco2)c1C (centres undefined)
 : nt	-0.9%	13%	nt
28	CCC(C)c1ccccc1NC(=O)CN(C)CCOc1ccc(Cl)cc1 (centres undefined)
 : 1%	?	?	nt
29	N#C/C(=C1/CCCCCN1)c1nc2ccccc2[nH]1
 : -38%	2.1%	-10%	-11
30	Cc1ccc(S(=O)(=O)N2[C@@H](c3ccc(C(C)(C)C)cc3)C(C(=O)O)=CC[C@H]2c2cccs2)cc1
 : nt	1.9%	0%	nt
31	Cc1ccc(C(C)C)c(OCC(=O)Nc2sc3c(c2C#N)CC(C)(C)NC3(C)C)c1
 : 0%	-1.4%	-15%	nt
32	COc1cc(O)c(C=Nc2ccccc2NS(=O)(=O)c2ccc(C)cc2)c(OC)c1
 : nt	?	?	nt
33	Cc1oc(-c2cccc(Cl)c2)nc1CS(=O)(=O)CC(=O)NCc1ccco1
 : -4%	0.3%	17%	nt
34	CCOCC(=O)Nc1c(C(=O)Nc2ccccc2OC)oc2ccccc12
 : -16%	0.5%	-1%	0
35	Cc1ccc(NC(=O)c2nc[nH]c2C(=O)N[C@@H](C)c2ccccc2)cc1
 : 4%	-0.5%	-5%	2
36	O=C(NCc1ccccc1Cl)c1ccc2c(c1)OCO2
 : -22%	0.3%	-27%	nt
37	COc1cccc(C(=O)C2CCCN(C(=O)c3ccccc3Cl)C2)c1 (centres undefined)
 : 8%	?	14%	nt
38	CC1CCN(S(=O)(=O)c2ccc(C(=O)Nc3ncccc3O)cc2)CC1
 : -15%	-2.9%	2%	nt
39	Cc1ccc(-n2ccnc2SCC(=O)O)c(C)c1
 : -2%	-2.5%	-4%	-6
40	c1ccc(CNc2nc(-c3ccccn3)nc3ccccc23)cc1
 : ?	-1.0%	-14%	nt
41	BrC(=C\c1ccccc1)/C=N/N1CCN(c2ccccc2)CC1
 : -6%	3.9%	26%	-1
42	COc1ccccc1/C=C/C(=O)OCC(=O)N1CCc2ccccc21
 : nt	-1.1%	-12%	nt
43	O=C(OCC(=O)N1CCCC1=O)c1ccc(O)cc1O
 : nt	6.5%	0%	nt
44	COCCn1nnnc1C(c1cccc(C#N)c1)N1CCCCCC1 (centres undefined)
 : -3%	-5.1%	19%	-4
45	Cc1cccc(C)c1NC(=O)CN1CCN(C(=O)CN2C(=O)NC3(CCCCC3C)C2=O)CC1 (centres undefined)
 : nt	-2.9%	-2%	nt
46	CCCCN(C)C(=O)c1cc2cc3ccc(OC)cc3nc2s1
 : -1%	-0.4%	0%	-1
47	Cc1nnc(NC(=O)c2ccc(S(=O)(=O)N(C)Cc3ccccc3)cc2)o1
 : 14%	-4.3%	-15%	3
48	CC(=O)Nc1ccc(NC(=O)COC(=O)CCCc2c[nH]c3ccccc23)cc1
 : nt	3.4%	29%	nt
49	CN(Cc1ccccc1)C(=O)c1cccc(NC(=O)Cc2ccc([N+](=O)[O-])cc2)c1
 : nt	5.8%	-2%	nt
50	COc1ccc(C=O)cc1Cn1cnc2c(cnn2C)c1=O
 : 15%	-1.1%	-4%	-15

Later entries
Fields – miR-21 reporter	Rango complex inh	Rango dissoc inh	GLA inh pH 4.5
51	Cc1ccc(S(=O)(=O)NC(CC(=O)n2nc(C)cc2C)c2ccccc2)cc1 (centres undefined)
 : 0%	-6.0%	51%	1
52	CC(C)=NOC(=O)c1c(C)noc1-c1snnc1C
 : 3%	-0.6%	10%	2
53	COc1ccccc1N(CC(=O)NCCSc1ccccc1)S(C)(=O)=O
 : -2%	3.3%	3%	-6
54	CC1CCN(C(=O)NC(=O)c2ccc(Cl)cc2)CC1
 : -21%	0.4%	0%	nt
55	O=C(NCCS(=O)(=O)N1CCN(c2ccccc2F)CC1)C1CC(=O)N(c2ccccc2)C1 (centres undefined)
 : -1%&0%	-0.4%	22%	nt
56	COc1ccccc1NC(=O)N1CCOCC1
 : -1%	0.5%	24%	nt
57	O=C1NC(=O)C(c2ccc(F)cc2)N1 (centres undefined)
 : 1%	-1.3%	-17%	nt
58	O=C1NC(=O)C(=O)N1
 : nt	1.2%	3%	nt
59	O=C(NCCC1CCCC1)c1cccs1
 : -48%	?	6%	nt
60	Cc1ccc(CNC(=O)CC2Sc3ccccc3NC2=O)cc1 (centres undefined)
 : 1%	-3.3%	0%	7
61	COc1cccc(C(=O)SC2=NCCS2)c1
 : -2%	3.9%	11%	-1
62	CCCn1nnnc1-c1ccc(Cl)cc1
 : 8%	3.8%	0%	6
63	Cc1ccc(NC(=O)CCc2nnc3ccc(N4CCN(C)CC4)nn23)cc1F
 : -3%	3.8%	1%	nt
64	CC(=O)/C(N=Nc1ccc(OC(F)(F)F)cc1)=C(\C)O
 : -1%	3.8%	21%	-10
65	CCCCNC(=O)c1ccc(CNc2c(N3CCC(C(=O)OCC)CC3)c(=O)c2=O)cc1
 : 1%	-0.2%&-4.5%	0%&-17%	3
66	Cc1ccc(OCC(=O)Nc2ccc(O)c(C(=O)O)c2)cc1C
 : 1%	0.1%	4%	7
67	O=C(COC(=O)c1cc([N+](=O)[O-])ccc1NCCO)Nc1ccc2c(c1)OCO2
 : -8%	-1.4%	-6%	5
68	N#CCSCC(=O)Nc1ccc(Br)cc1
 : 0%	2.2%	5%	-3
69	CC1CCc2cccc3c(O)cc(=O)n1c23 (centres undefined)
 : nt	-1.3%	-13%	nt
70	CC(=O)NNC(=S)NC(=O)c1cccc([N+](=O)[O-])c1
 : -4%	0.2%	2%	2
71	CCNC(=O)C(=O)NCc1ccncc1
 : 0%	-2.4%	1%	3
72	CSc1ncccc1C(=O)OCC(=O)N1CC(=O)Nc2ccccc21
 : nt	-1.3%	0%	nt
73	CC(C)N(C(=O)CSc1nc(Cc2ccccc2)nc2ccccc12)C(C)C
 : 6%	2.1%	15%	nt
74	CC1(C)c2[nH]c3ccccc3c2C[C@@H]2C(=O)N(Cc3ccccc3)C(=O)N21
 : nt	?	21µM*	nt
75	COc1ccc(Cl)cc1NC(=O)CN(C)C(=O)CNC(=O)C12CC3CC(CC(C3)C1)C2
 : 0%	2.4%	0%	-1
76	COc1ccc(C2/C(=C(/O)c3ccc4c(c3)CC(C)O4)C(=O)C(=O)N2CCCN2CCOCC2)cc1OC (centres undefined)
 : 0%	-0.2%	37%	nt
77	CCOc1cccc(CN2CCCC(N3CCc4ccccc4C3)C2)c1O (centres undefined)
 : 7%	-1.7%	-12%	nt
78	COc1ccc(N/C=C(\C(C)=O)c2ccc(OC)c(OC)c2)cc1OC
 : -14%	?	-14%	0
79	Cc1cc(C)c(NC(=O)CSc2nc3ncc(Br)cc3[nH]2)c(C)c1
 : 0%	0.1%	6%	nt
80	COc1ccc(C(C)C)cc1S(=O)(=O)Nc1ccncc1
 : 1%	-1.6%	8%	-8
81	O=C(CN(C(=O)CSc1nc2ccccc2o1)c1ccccc1)NC1CCCCC1
 : -4%	4.6%	0%	-23
82	CCC(=O)N1CCN(c2cc(N3CCCC3)c(F)cc2[N+](=O)[O-])CC1
 : nt	3.5%	14%	nt
83	Nc1ccc2cccc(O)c2c1
 : nt	3.1%	12%	nt
84	Cc1cccc(OCC(O)CN2CCN(C3CCCCC3)CC2)c1 (centres undefined)
 : -5%	?	-9%	11
85	CCOc1ccccc1NC(=O)C1CCN(C(=O)c2cccs2)CC1
 : 3%	-2.3%	4%	7
86	Cc1ccc(C)c(CNS(=O)(=O)c2ccc3c(c2)C(C)(C)C(=O)N3C)c1
 : -2%&4%	-1.9%	-2%	nt
